Screens (PubChem BioAssay)
FGF22 binding = shifts melting point of recombinant human FGF22 | AID 651658 | 340,000 compounds, 1.5% hits | recombinant FGF22 thermal shift, SYPRO orange fluorescence; percent of sucrose octasulfate shift, DMSO zero | calls only at 9.99 µM;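 active = melting point raised past a set limit in the mean and every replicate; three in four hits are not shown here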
Target sequence (Q9HCT0 whole entry, looked up): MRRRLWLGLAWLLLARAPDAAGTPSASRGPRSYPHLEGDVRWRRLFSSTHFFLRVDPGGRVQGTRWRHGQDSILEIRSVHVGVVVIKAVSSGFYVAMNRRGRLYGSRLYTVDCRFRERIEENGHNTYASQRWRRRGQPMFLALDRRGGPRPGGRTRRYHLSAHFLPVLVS
Calls only; i = inactive; + = active, no number. An excerpt; count on the stated rates, not on these rows.

SMILES | FGF22 binding
CC(=O)N1CCCCN2[C@H](C1)[C@H](c1ccc(-c3ccncc3)cc1)[C@@H]2CO | i
CS(=O)(=O)Nc1ccc2c(c1)[C@H]1C[C@H](CC(=O)NCc3ccccn3)O[C@@H](CO)[C@H]1O2 | i
CN1c2ccc(C3=CCCCC3)cc2[C@@H]2[C@@H](CCN2C(=O)NC2CCCCC2)[C@H]1CO | i
C[C@H](CO)N1C[C@H](C)[C@@H](CN(C)Cc2ccc(C(=O)Nc3ccccc3N)cc2)Oc2ccc(NS(=O)(=O)c3ccc(F)cc3)cc2CC1=O | i
COCC(=O)N1CC(=O)N2[C@H](CO)[C@H](c3ccc(C#CCc4ccccc4)cc3)[C@@H]2C1 | i
CN1C(=O)c2cc(NC(=O)c3cccc(F)c3)ccc2OC[C@H]2O[C@H](CC(=O)NC3CCC3)CC[C@H]21 | i
C[C@@H]1CN([C@H](C)CO)C(=O)c2cc(C3=CCCCC3)cnc2O[C@@H]1CN(C)C(=O)Cc1ccncc1 | i
O=C(C[C@H]1C=C[C@H](NC(=O)Cc2cccnc2)[C@@H](CO)O1)Nc1ccccc1 | i
CN1CCCCN2[C@@H](CO)[C@@H](c3ccc(C4=CCCC4)cc3)[C@@H]2C1 | i
C[C@H](CO)N1C[C@H](C)[C@H](CN(C)Cc2ccc(F)cc2)Oc2ncc(-c3cccc(C#N)c3)cc2C1=O | i
C[C@@H]1CN([C@H](C)CO)C(=O)c2cc(NS(=O)(=O)c3cccs3)ccc2O[C@@H](C)CCCCO[C@@H]1CN(C)C(=O)CCCN(C)C | i
C[C@H]1CCCCO[C@H](CN(C)C(=O)CCC(F)(F)F)[C@@H](C)CN([C@@H](C)CO)C(=O)c2cc(NC(=O)NC3CCCCC3)ccc2O1 | i
C[C@H]1CN([C@@H](C)CO)C(=O)c2cccc(NC(=O)C3CCOCC3)c2O[C@H]1CN(C)Cc1ccc(C(F)(F)F)cc1 | i
CCC(=O)N1CC2(C1)CN(S(C)(=O)=O)[C@@H](CO)c1[nH]c3cc(OC)ccc3c12 | i
C[C@H](CO)N1C[C@H](C)[C@@H](CN(C)Cc2ccc3c(c2)OCO3)OCCCC[C@H](C)Oc2ccc(NS(=O)(=O)c3cccs3)cc2C1=O | i
C[C@H](CO)N1C[C@H](C)[C@@H](CN(C)C)Oc2ccc(N(C)C)cc2C1=O | +
CCC(=O)N1CC(=O)N2[C@H](CO)[C@@H](c3ccc(C#CC4CCCCC4)cc3)[C@@H]2C1 | i
O=C(C[C@H]1CC[C@H](NC(=O)CN2CCOCC2)[C@@H](CO)O1)NCCc1ccncc1 | i
O=C(C1CCC1)N1C[C@H]2[C@@H](c3ccccc31)[C@@H](CO)N2C(=O)Cc1ccccn1 | i
Cc1ccccc1CN(C)C[C@H]1OCc2cnnn2CCCC(=O)N([C@H](C)CO)C[C@H]1C | i
CC(C)NC(=O)N(C)C[C@@H]1Oc2ncc(-c3ccccc3F)cc2C(=O)N([C@@H](C)CO)C[C@@H]1C | i
CS(=O)(=O)Nc1ccc2c(c1)[C@H]1C[C@H](CC(=O)NCC(F)(F)F)O[C@H](CO)[C@H]1O2 | i
C[C@@H]1CCCCO[C@H](CN(C)Cc2ccc3c(c2)OCO3)[C@@H](C)CN([C@@H](C)CO)C(=O)c2cc(NC(=O)NC3CCCCC3)ccc2O1 | i
C[C@@H]1CN([C@@H](C)CO)C(=O)c2cc(NC(=O)Cc3cn(C)c4ccccc34)ccc2O[C@H]1CN(C)Cc1ccc2c(c1)OCO2 | i
Cc1noc(C)c1S(=O)(=O)Nc1ccc2c(c1)CC(=O)N([C@H](C)CO)C[C@H](C)[C@@H](CN(C)Cc1ccc(C(=O)Nc3ccccc3N)cc1)O2 | i

The closing three compounds of the section before come first, to join the parts.
SMILES | FGF22 binding
C[C@@H]1CCCCO[C@H](CN(C)Cc2ccc3c(c2)OCO3)[C@@H](C)CN([C@@H](C)CO)C(=O)c2cc(NC(=O)NC3CCCCC3)ccc2O1 | i
C[C@@H]1CN([C@@H](C)CO)C(=O)c2cc(NC(=O)Cc3cn(C)c4ccccc34)ccc2O[C@H]1CN(C)Cc1ccc2c(c1)OCO2 | i
Cc1noc(C)c1S(=O)(=O)Nc1ccc2c(c1)CC(=O)N([C@H](C)CO)C[C@H](C)[C@@H](CN(C)Cc1ccc(C(=O)Nc3ccccc3N)cc1)O2 | i
C[C@@H]1CCCCO[C@H](CN(C)C(=O)Nc2ccc(C(F)(F)F)cc2)[C@@H](C)CN([C@H](C)CO)C(=O)c2cc(NC(=O)C3CCCCC3)ccc2O1 | i
C[C@@H]1CN([C@H](C)CO)C(=O)c2ccccc2-c2ccccc2CO[C@H]1CN(C)S(=O)(=O)c1ccsc1 | i
COc1ccc(NC(=O)N(C)C[C@@H]2OCCCC[C@H](C)Oc3ccc(NC(=O)Nc4ccc(C(F)(F)F)cc4)cc3C(=O)N([C@H](C)CO)C[C@@H]2C)cc1 | i
C[C@@H]1CN([C@H](C)CO)C(=O)c2cc(NS(=O)(=O)c3ccc(Cl)cc3)ccc2O[C@@H]1CN(C)S(=O)(=O)c1cccs1 | i
O=C(C[C@@H]1CC[C@H]2[C@@H](COC[C@H](O)CN2Cc2cc(F)ccc2F)O1)N[C@@H]1CCN(Cc2ccccc2)C1 | i
COc1cccc(-c2cn(CC[C@H]3CC[C@@H](NC(=O)CC4CC4)[C@@H](CO)O3)nn2)c1 | i
C[C@@H]1CN([C@H](C)CO)C(=O)c2cc(C#CC3CC3)cnc2O[C@@H]1CN(C)S(=O)(=O)c1cccc(F)c1 | i
C[C@H](CO)N1C[C@H](C)[C@H](CN(C)Cc2ccncc2)Oc2ncc(C#Cc3ccc(F)cc3)cc2C1=O | i
COc1ccccc1Cc1c(-c2ccccc2)nc2ccc(C)cn12 | i
C[C@@H]1CN([C@H](C)CO)C(=O)c2cc(NS(=O)(=O)c3cn(C)cn3)ccc2O[C@H]1CN(C)Cc1ccc(Oc2ccccc2)cc1 | i
C[C@H](CO)N1C[C@H](C)[C@H](CN(C)S(=O)(=O)c2ccccc2)Oc2cc(C#Cc3ccncc3)ccc2S1(=O)=O | i
Cc1ccccc1C(=O)N[C@H](C(=O)N1CCC[C@H]1C(=O)NCCc1ccccc1Cl)C1CCCCC1 | i
C[C@@H]1CN([C@H](C)CO)C(=O)c2cc(NS(=O)(=O)c3cn(C)cn3)ccc2O[C@@H](C)CCCCO[C@@H]1CN(C)C(=O)CCCN(C)C | i
C[C@@H]1CCCCO[C@@H](CN(C)Cc2ccccc2)[C@H](C)CN([C@H](C)CO)C(=O)c2cc(NS(C)(=O)=O)ccc2O1 | i
CCNC(=O)C[C@@H]1CC[C@H]2[C@@H](COC[C@H](O)CN2C(=O)c2ccccn2)O1 | i
C[C@H]1CN([C@@H](C)CO)C(=O)c2cc(NS(=O)(=O)c3cccs3)ccc2O[C@H]1CN(C)Cc1ccc(-c2ccccc2)cc1 | i
CC(C)CC#Cc1ccc2c(c1)O[C@H](CN(C)S(=O)(=O)c1ccc(F)cc1)[C@@H](C)CN([C@@H](C)CO)S2(=O)=O | i
C[C@H]1CN([C@@H](C)CO)S(=O)(=O)c2ccc(/C=C/c3ccccc3)cc2O[C@H]1CN(C)Cc1ccc(C(=O)O)cc1 | i
C[C@@H]1CN([C@H](C)CO)C(=O)c2cc(NS(=O)(=O)c3ccccc3)ccc2O[C@@H](C)CCCCO[C@H]1CN(C)C(=O)C1CCCCC1 | i
C[C@H](CO)N1C[C@H](C)[C@H](CN(C)Cc2ccc(-c3ccccc3)cc2)Oc2ccc(NC(=O)c3ccncc3)cc2C1=O | i
C[C@H]1CN([C@@H](C)CO)C(=O)c2cccc(NS(=O)(=O)c3ccccc3)c2O[C@H]1CN(C)Cc1ccccc1 | i
CCCNC(=O)N1CCC2(CC1)CN(S(C)(=O)=O)[C@@H](CO)c1c2c2ccc(OC)cc2n1C | i
CC(C)NC(=O)N(C)C[C@@H]1Oc2ccc(NS(=O)(=O)c3ccc(F)cc3)cc2CC(=O)N([C@H](C)CO)C[C@H]1C | i
C[C@H](CO)N1C[C@H](C)[C@@H](CN(C)S(=O)(=O)c2cn(C)cn2)Oc2ccc(NC(=O)Nc3ccc(C(F)(F)F)cc3)cc2CC1=O | i
C[C@H](O)C#Cc1cnc2c(c1)C(=O)N([C@@H](C)CO)C[C@H](C)[C@H](CN(C)C(=O)c1ccccc1)O2 | i
SMILES | FGF22 binding
C[C@@H]1CN([C@H](C)CO)C(=O)c2cc(NC(=O)Nc3ccc(F)cc3)ccc2O[C@@H]1CN(C)Cc1ccc2c(c1)OCO2 | i
C[C@H]1CN([C@@H](C)CO)C(=O)Cc2cc(NC(=O)Nc3ccc(F)cc3)ccc2O[C@H]1CN(C)Cc1ccc2c(c1)OCO2 | i
CCCNC(=O)[C@H]1[C@H](CO)[C@H]2Cn3c(ccc(-c4ccc(C(=O)N(C)C)cc4)c3=O)[C@H]2N1CCC | i
O=C1N[C@H](c2ccccc2)COCc2cn(nn2)CC[C@H]1Cc1ccccc1 | i
C[C@H](CO)N1C[C@H](C)[C@@H](CN(C)C(=O)CN(C)C)Oc2ncc(C#CCC3CCCC3)cc2C1=O | i
COc1ccc2c3c([nH]c2c1)[C@@H](CO)N(C(=O)Cc1ccccn1)CC31CCN(Cc2ccccn2)CC1 | i
COc1ccc(CN(C)C[C@@H]2OCc3cnnn3CCCC(=O)N([C@@H](C)CO)C[C@@H]2C)cc1 | i
CC(=O)N1[C@H](CO)[C@@H](c2ccc(C3=CCCC3)cc2)C12CN(C(=O)C1CC1)C2 | i
CN1C(=O)c2cc(NC(=O)Cc3cccs3)ccc2OC[C@@H]2O[C@H](CC(=O)N[C@H]3CCN(Cc4ccccc4)C3)CC[C@H]21 | i
CO[C@@H]1CN(C)C(=O)c2ccc(NS(=O)(=O)c3ccc(C)cc3)cc2OC[C@@H](C)NC[C@@H]1C | i
C[C@H](CO)N1C[C@H](C)[C@@H](CN(C)Cc2ccc(Cl)c(Cl)c2)OCCCC[C@H](C)Oc2ccc(NS(=O)(=O)c3ccc(F)cc3)cc2C1=O | i
CC(C)NC(=O)Nc1ccc2c(c1)C(=O)N([C@H](C)CO)C[C@H](C)[C@@H](CN(C)S(=O)(=O)c1cccs1)OCCCC[C@@H](C)O2 | i
C[C@@H]1CN([C@H](C)CO)C(=O)c2cc(C#CCc3ccccc3)cnc2O[C@@H]1CN(C)C(=O)C1CCOCC1 | i
O=C(C[C@H]1CC[C@H]2[C@@H](COC[C@H](O)CN2Cc2cccc(F)c2)O1)NCc1ccncc1 | i
CC(C)[C@H](NC(=O)C1CCCC1)C(=O)N1CCC[C@H]1C(=O)NCCc1ccccc1Cl | i
C[C@@H]1CN([C@H](C)CO)C(=O)c2cccc(NS(C)(=O)=O)c2O[C@H]1CN(C)Cc1ccc(C(F)(F)F)cc1 | i
C[C@@H]1CCCCO[C@H](CN(C)C(=O)Nc2ccc(F)cc2)[C@H](C)CN([C@H](C)CO)C(=O)c2cc(NC(=O)Nc3ccc(F)cc3)ccc2O1 | i
C[C@@H]1CN([C@@H](C)CO)C(=O)c2ccccc2-c2ccccc2CO[C@@H]1CN(C)C(=O)[C@@H]1CCCN1C | i
CO[C@@H]1CN(C)C(=O)c2ccc(NC(C)=O)cc2OC[C@H](C)N(Cc2ccccn2)C[C@@H]1C | i
COc1ccc2c3c([nH]c2c1)[C@H](CO)N(C)CC31CCN(C(=O)Nc2c(C)noc2C)CC1 | i
C[C@H]1CN([C@@H](C)CO)C(=O)c2cc(NC(=O)Cc3ccccc3)ccc2O[C@@H]1CN(C)S(=O)(=O)c1cn(C)cn1 | i
COc1ccccc1-c1cn(CC[C@H]2CC[C@H](NC(=O)CCN3CCCCC3)[C@H](CO)O2)nn1 | i
C[C@@H]1CN([C@@H](C)CO)C(=O)c2cc(NC(=O)Nc3ccc4c(c3)OCO4)ccc2O[C@@H]1CN(C)C(=O)Nc1cccc2ccccc12 | i
C[C@H](CO)N1C[C@H](C)[C@H](CN(C)Cc2ccccc2F)Oc2cc(C#CC3CC3)ccc2S1(=O)=O | i
O=C(c1cccnc1)N1C[C@@H]2[C@H](c3ccccc31)[C@H](CO)N2C(=O)C1CCCCC1 | i

Part of the list above in another layout.
> COc1ccc2c3c([nH]c2c1)[C@@H](CO)N(C(=O)Cc1ccccn1)CC31CCN(Cc2ccccn2)CC1
  FGF22 binding: i

> COc1ccc(CN(C)C[C@@H]2OCc3cnnn3CCCC(=O)N([C@@H](C)CO)C[C@@H]2C)cc1
  FGF22 binding: i

> CC(=O)N1[C@H](CO)[C@@H](c2ccc(C3=CCCC3)cc2)C12CN(C(=O)C1CC1)C2
  FGF22 binding: i

> CN1C(=O)c2cc(NC(=O)Cc3cccs3)ccc2OC[C@@H]2O[C@H](CC(=O)N[C@H]3CCN(Cc4ccccc4)C3)CC[C@H]21
  FGF22 binding: i

Continued:
SMILES | FGF22 binding
COCC(=O)Nc1ccc2c(c1)C(=O)N(C)C[C@@H](OC)[C@H](C)CN(CC1CC1)[C@@H](C)CO2 | i
C[C@H]1CN([C@@H](C)CO)C(=O)CCCn2nncc2CO[C@@H]1CN(C)Cc1cccnc1 | i
C[C@@H]1CN([C@@H](C)CO)C(=O)Cc2cc(NC(=O)Nc3cccc4ccccc34)ccc2O[C@@H]1CN(C)C | i
Cc1noc(C)c1NC(=O)N[C@@H]1CC[C@@H](CCNC(=O)C2CCC2)O[C@H]1CO | i
COc1ccc(S(=O)(=O)N(C)C[C@@H]2Oc3ccc(NS(=O)(=O)c4cccs4)cc3CC(=O)N([C@H](C)CO)C[C@H]2C)cc1 | i
Cc1noc(C)c1NC(=O)N(C)C[C@H]1Oc2c(NC(=O)c3ccc(-c4nccs4)cc3)cccc2C(=O)N([C@@H](C)CO)C[C@H]1C | i
O=C(Nc1cccc(F)c1)N1C[C@H]2[C@@H](c3ccccc31)[C@@H](CO)N2C(=O)c1ccccn1 | i
CN1C(=O)c2cc(NC(=O)c3cccc(C(F)(F)F)c3)ccc2OC[C@H]2O[C@H](CC(=O)O)CC[C@H]21 | i
